LANA-H2B inh: blocks KSHV LANA binding to histone H2A/H2B; inhibition, % (concentration not given with the values); 320,000 tested, 0.6% active; cell-free LANA-H2A/H2B peptide, fluorescence polarization; Q9QR71; in the data active = inhibition mostly above about 10%, no sharp cut-off; inactive = mostly below about 6.7%;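 also: stock transfer was 7.5 nL into about 10 µL; 0% = median of vehicle wells and 100% = median of positive control wells; one replicate is shown; the record names a cut of 25% in any replicate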
Target sequence (Q9QR71 whole entry, looked up): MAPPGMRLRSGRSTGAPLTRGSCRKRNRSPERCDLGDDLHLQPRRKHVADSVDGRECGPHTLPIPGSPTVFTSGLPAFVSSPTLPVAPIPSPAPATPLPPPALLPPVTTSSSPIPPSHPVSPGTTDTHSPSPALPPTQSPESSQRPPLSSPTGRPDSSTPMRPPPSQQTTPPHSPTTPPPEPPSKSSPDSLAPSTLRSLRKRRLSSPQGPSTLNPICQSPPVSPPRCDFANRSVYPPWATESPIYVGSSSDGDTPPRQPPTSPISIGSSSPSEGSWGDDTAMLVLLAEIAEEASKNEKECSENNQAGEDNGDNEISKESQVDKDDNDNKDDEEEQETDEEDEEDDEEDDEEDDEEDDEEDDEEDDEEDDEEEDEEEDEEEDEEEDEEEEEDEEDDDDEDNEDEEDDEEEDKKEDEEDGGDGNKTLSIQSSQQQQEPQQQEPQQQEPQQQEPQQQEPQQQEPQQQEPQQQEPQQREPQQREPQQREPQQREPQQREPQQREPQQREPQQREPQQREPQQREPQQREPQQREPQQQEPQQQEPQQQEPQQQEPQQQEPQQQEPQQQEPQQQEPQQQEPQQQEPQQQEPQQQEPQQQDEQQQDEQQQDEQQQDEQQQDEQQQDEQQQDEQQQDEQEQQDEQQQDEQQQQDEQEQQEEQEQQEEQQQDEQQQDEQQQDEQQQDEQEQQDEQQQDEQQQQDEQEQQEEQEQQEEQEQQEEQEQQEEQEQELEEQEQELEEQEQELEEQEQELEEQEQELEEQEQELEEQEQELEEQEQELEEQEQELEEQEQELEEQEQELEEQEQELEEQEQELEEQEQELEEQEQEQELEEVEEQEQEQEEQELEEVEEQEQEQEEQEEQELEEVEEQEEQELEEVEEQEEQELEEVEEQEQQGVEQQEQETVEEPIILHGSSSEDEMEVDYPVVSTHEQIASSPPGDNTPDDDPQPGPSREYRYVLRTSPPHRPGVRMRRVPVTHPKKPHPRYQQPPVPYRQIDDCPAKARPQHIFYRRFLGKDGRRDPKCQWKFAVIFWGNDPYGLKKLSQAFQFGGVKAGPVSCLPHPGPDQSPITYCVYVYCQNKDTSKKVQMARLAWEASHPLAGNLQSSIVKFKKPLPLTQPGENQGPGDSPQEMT
Calb FLC: C. albicans growth modulation with fluconazole; AID 1979; 300,000 tested, 0.57% active; C. albicans CaCi-2 (fluconazole-resistant clinical isolate) + fluconazole, Alamar Blue growth, 48 h; growth inhibition, % (concentration not given with the values);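 active = most replicates above 75%; inconclusive = exactly half above 75%; inactive = most below 75%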;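 also: all wells also contain fluconazole at 8 µg/ml as a sub-toxic cotreatment; 0% = median of DMSO wells and 100% = median of geldanamycin control wells; wells of about 8 µL received 7.5 nL stock; the first replicate is given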
UCH37 inh: inhibitors of human deubiquitinating enzyme UCH37. Q9Y5K5. purified proteasome/UCH37, Ub-AMC cleavage fluorescence. inhibition, % (test concentration not listed). 330,000 tested, 0.33% active. AID 588478;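 active = mean of two replicates above 20%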;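 also: 0% = compound-free wells with enzyme and 100% = wells lacking proteasome; stock transfer was 100 nL into about 20 µL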
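Material: human UCH37 enzyme supplied as purified proteasome complex. Measure: % inhibition of Ub-AMC cleavage fluorescence. Medium: pH 7.4 Tris-HCl (50 mM) with ovalbumin, ATP-MgCl2, DTT. Times: 30 min preincubation with enzyme, 25 min cleavage at room temperature. Detection: AMC fluorescence intensity at 355/460 nm.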
Beta2AR agonist: human beta-2 adrenergic receptor agonism by FAP; P07550; Am2.2-beta2AR cells, FAP receptor internalization, flow cytometry; reference of the scale not given here; response, % (test concentration not listed); 340,000 tested, 0.43% active; AID 504454;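 active = response above a set limit, near 3 SD of response in nonfluorescent compounds, cut at about 42% in these data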;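 also: stock transfer was 100 nL into about 11 µL; a reference agonist was the positive control; negative values mostly stem from fluorescent compounds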
Bfl-1 A1 inh: inhibitors of the anti-apoptotic protein A1, read as caspase activation | AID 2462 | 330,000 tested, 0.066% active | caspase activation, % (concentration not given with the values) | MEF A1-2A-BIM cells, Caspase-Glo 3/7 luminescence, 3 h; percent of clofoctol response, vehicle zero;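 active = over half of replicate activation scores above 10%, or exactly half above 10 with the replicate mean above 10; inconclusive = replicate mean below 10 yet half the replicates above 10; inactive = over half of replicates below 10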;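 also: wells of about 30 µL received 50 nL stock; many hits fall short of the cut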
RanGTP-Imp inh: inhibitors of RanGTP-importin-beta interaction, primary screen, biochemical, FRET, CFP-Ran, YFP-importin-beta, homogeneous. cell-free CFP-Ran/YFP-importin-beta FRET ratio. inhibition, % (no concentration beside the values). 300,000 tested, 1.1% active. AID 2216;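 active = most replicates above 15%; inconclusive = exactly half above 15%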;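 also: 0% = DMSO wells and 100% = Ran loaded with GDP instead of GTP; wells of about 40 µL received 100 nL stock; the first replicate is given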
Beta cell apopt: blocks beta cell apoptosis. 300,000 tested, 0.8% active. protection from apoptosis, % (concentration not given with the values). INS-1E cytokine-induced death, ATP luminescence, 48 h; percent of positive-control rescue, neutral wells zero;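 active = all replicates at 75% or more, or half of them and the mean; inconclusive = half reach 75% but not the mean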;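 also: 0% = cytokine-treated negative control wells and 100% = positive control rescue; higher means more ATP so stronger rescue from cytokine killing; wells of about 40 µL received 100 nL stock; the first replicate is given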
T cruzi repl: blocks replication of Trypanosoma cruzi; 300,000 tested, 1.4% active; inhibition, % (concentration not given with the values); T. cruzi beta-gal in NIH3T3, luminescence, 90 h;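 active = mean inhibition across valid replicates above about 55%, limit read from the data; inconclusive = mean below that limit but half or more replicates reach it; inactive = mean below it, under half of replicates reach it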;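 also: signal also drops with host cell toxicity which is not excluded here; 0% = plate median of DMSO wells and 100% = zero luminescence signal; higher percent means less beta-gal luminescence so fewer parasites; stock transfer was 50 nL into about 50 µL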
The depositor's hits bear a star; ? = inconclusive; . = not tested or not shown.

SMILES	LANA-H2B inh	Calb FLC	UCH37 inh	Beta2AR agonist	Bfl-1 A1 inh	RanGTP-Imp inh	Beta cell apopt	T cruzi repl
CCn1c(=O)c(=O)n(CC)c2cc(S(=O)(=O)Nc3cc(C)ccc3C)ccc21	0.2	-4	3.3	-8	-0.2	3.5	2	-7
O=C(Nc1nnc(-c2ccncc2)s1)Nc1ccccc1F	0.7	38	-1.2	-9	0.3	1.9	.	-11
CCCCn1cc([N+](=O)[O-])nc1C	2.4	1	6.1	-4	1.4	0.6	-3	-21
CSc1ccccc1OCc1cc(C(=O)N(C)Cc2nonc2C)no1	1.5	16	2.5	0	1.2	?	-5	8
CC(=O)c1c(C)[nH]c(C(=O)OCc2cc(-c3ccco3)on2)c1C	-2.3	.	.	-2	0.2	.	0	.
O=C(CNS(=O)(=O)c1cccs1)N1CCN(c2ccccc2F)CC1	6.7	0	3.8	6	0.0	1.6	3	-3
O=C(O)CSc1c(-c2ccccc2)[nH]c2ccccc12	-3.0	-1	-2.6	0	0.2	-31	-2	11
Cc1cc(C(=O)CN2C(=O)c3ccccc3S2(=O)=O)c(C)n1-c1ccccc1	-0.7	-8	-1.4	-2	-0.9	0.7	0	20
O=C(COc1ccc(C(F)(F)F)cc1[N+](=O)[O-])Nc1cccc(C(F)(F)F)c1	0.1	2	0.1	-7	0.0	4.9	-2	8
CCOC(=O)c1ccc(NS(=O)(=O)CC)cc1	-3.2	-15	2.2	-6	-2.7	0.1	2	-2
COc1ccc(NC(=O)N(Cc2ccc3c(c2)OCO3)C2CC(=O)N(c3ccc(OC)cc3)C2=O)cc1 (stereo not given)	.	5	1.0	10	.	2.1	.	6
O=C(CS(=O)c1cccc(Cl)c1)Nc1ccccc1Cl (stereo not given)	-7.6	-3	5.7	-4	-0.8	7.1	-7	-19
CC1CN(C(=S)Nc2cccc(Cl)c2Cl)CC(C)O1 (stereo not given)	0.2	-15	-0.5	11	1.9	0.7	-4	-18
O=C(CCn1nnc(-c2cccs2)n1)NC1CCCCC1	-7.0	-14	3.2	-6	1.1	-0.9	-1	2
CC1CCN(S(=O)(=O)c2ccc(C(C)C)cc2)CC1	4.3	-18	3.6	8	-0.5	-0.2	3	8
CC1CCN(c2ccc([N+](=O)[O-])cc2C(=O)O)CC1	-3.0	-6	16	1	1.7	-6.3	-1	7
CCCSc1ccc2nc(-c3ccccc3)cn2c1	-9.0	16	-10	-12	-8.7	7.9	22	26
CCOC(=O)c1sc(NC(=O)Cc2ccc(C)cc2)nc1C	-5.8	14	7.0	-5	1.2	-5.7	9	12
O=c1[nH]cnc2c1cnn2Cc1ccccc1	-1.6	.	4.0	9	-0.8	.	-1	.
CCC(CC)NC(=O)c1cc2c(C)nn(Cc3ccccc3Cl)c2s1	7.1	0	0.8	5	0.9	6.0	5	29
COc1ccc(S(=O)(=O)NC(C)C(=O)Nc2ccc3c(c2)OCO3)cc1OC (stereo not given)	7.0	3	2.8	12	-0.4	-3.9	1	2
CCc1cc2cc(C)cc(C)c2nc1SCC(=O)N1CCN(C(=O)c2ccco2)CC1	5.5	.	2.3	-6	1.5	.	1	.
FC(F)(F)c1cnc2c(c1)Nc1ccccc1S2	-6.8	-5	2.7	3	-0.2	-5.3	2	-13
Cc1ccc(CN2CC(C(=O)Nc3ccncc3)CC2=O)cc1 (stereo not given)	-0.8	7	4.4	2	0.2	2.0	-9	-3
C(=N\n1cnnc1)/c1cccc(Oc2ccccc2)c1	-1.3	59	.	-14	0.3	-1.8	-2	18
O=C(CCN1CCc2ccccc2C1)Nc1cccc(F)c1	1.8	19	3.2	-8	-0.1	-1.2	0	50
CCOC(=O)Cn1c(SC)nc2sc3c(c2c1=O)CC(C)(C)OC3	1.3	34	-1.9	1	-0.6	3.5	1	14
Cc1ccc(CN2CCCN(Cc3ccc(F)cc3Cl)S2(=O)=O)cc1	4.1	6	-0.7	-6	-0.4	-1.1	-3	0
COc1ccc(/C=C/C(=O)Oc2cccc(/C=N/NC(=O)c3cccc(F)c3)c2)cc1	-1.1	-1	.	11	-5.8	2.0	3	-12
O=C(CN1CCN(Cc2ccccc2Cl)CC1)N/N=C/C=C/c1ccco1	-3.4	-6	.	-1	0.9	?	-4	-38
CCCCn1c(N)c(N(CC(C)C)C(=O)c2c(-c3ccccc3)noc2C)c(=O)[nH]c1=O	0.0	.	-2.4	5	0.7	.	-9	.
CC1CC(C)CN(C(=O)CN2C(=O)NC(C)(C)C2=O)C1 (stereo not given)	1.7	-5	0.9	-5	1.7	0.3	-5	-12
COCCNC(=O)C1CC(=O)N(CCc2ccccc2)C1 (stereo not given)	-1.6	2	5.3	2	0.2	1.2	3	-5
Cc1ccc(N(Cc2cc(=O)[nH]c3ccccc23)C(=O)CCl)c(C)c1	-4.0	32	-2.8	1	0.7	2.3	-53	22
CSc1ccc(COC(=O)c2cc([N+](=O)[O-])ccc2N2CCOCC2)cc1	-28	0	1.3	25	-0.5	1.2	68	41
COc1cccc(/C=C/C(=O)c2ccc(C)c([N+](=O)[O-])c2)c1	-5.1	-14	-13	-3	-0.1	-2.7	-3	10
COc1ccc(NC(=O)CSCC(=O)N2CCN(c3cccc(C(F)(F)F)c3)CC2)cc1	0.5	.	1.4	-2	-0.1	.	-2	.
Cc1ccccc1C(=O)c1cccn1CC(=O)NC(C)CCc1ccccc1 (stereo not given)	5.0	-9	5.6	-6	-0.2	-1.2	-3	18
O=C1OC(CO)CN1Cc1ccccc1 (stereo not given)	-2.6	0	-0.3	2	-0.1	4.6	-3	-6
CCOC(=O)c1ccc(N/C=C/C(=O)c2ccccc2)cc1	0.8	30	-19	23	-6.0	3.1	3	17

In another format: 3 of the compounds above.
SMILES: CCc1cc2cc(C)cc(C)c2nc1SCC(=O)N1CCN(C(=O)c2ccco2)CC1
  LANA-H2B inh: 5.5	Calb FLC: .	UCH37 inh: 2.3	Beta2AR agonist: -6	Bfl-1 A1 inh: 1.5	RanGTP-Imp inh: .	Beta cell apopt: 1	T cruzi repl: .
SMILES: FC(F)(F)c1cnc2c(c1)Nc1ccccc1S2
  LANA-H2B inh: -6.8	Calb FLC: -5	UCH37 inh: 2.7	Beta2AR agonist: 3	Bfl-1 A1 inh: -0.2	RanGTP-Imp inh: -5.3	Beta cell apopt: 2	T cruzi repl: -13
SMILES: Cc1ccc(CN2CC(C(=O)Nc3ccncc3)CC2=O)cc1 (stereo not given)
  LANA-H2B inh: -0.8	Calb FLC: 7	UCH37 inh: 4.4	Beta2AR agonist: 2	Bfl-1 A1 inh: 0.2	RanGTP-Imp inh: 2.0	Beta cell apopt: -9	T cruzi repl: -3

More entries
SMILES	LANA-H2B inh	Calb FLC	UCH37 inh	Beta2AR agonist	Bfl-1 A1 inh	RanGTP-Imp inh	Beta cell apopt	T cruzi repl
O=C(c1ccc(CS(=O)Cc2ccccc2Cl)o1)N1CCN(c2cccc(Cl)c2)CC1 (stereo not given)	-3.9	-6	3.2	10	0.1	5.9	4	6
O=C(Nc1ccc(N2CCOCC2)c(Cl)c1)c1ccccc1Cl	0.6	-1	2.0	-6	-0.1	0.8	-1	10
O=C(CN1CCSCC1)N/N=C/c1ccc(F)cc1F	4.5	20	.	0	-0.5	4.2	1	-2
CC(C)(C)NCCCCOc1ccccc1F	0.1	-18	5.8	0	0.7	0.4	1	-8
C=CCn1c(=O)c(C(=O)NCc2ccc(Cl)cc2)c(O)c2ccccc21	-5.4	-1	1.3	4	0.9	-4.9	10	8
COc1cc(C(=O)Nc2ccc(NC(=O)C(C)C)nc2)cc(OC)c1OC	15*	-5	0.3	7	0.2	2.8	-6	-6
Cc1cc(Cn2nc(-c3ccccc3C)cc2C(=O)O)on1	0.3	.	-0.9	0	-0.3	.	-1	.
O=c1oc(/C=C/c2ccccc2)nc2ccccc12	.	-5	0.8	9	.	-0.3	.	-18
O=c1[nH]cnc2ccsc12	0.3	25	5.8	0	-0.4	2.9	2	-10
O=C(CSc1ccccc1)Nc1cccc(S(=O)(=O)N2CCCC2)c1	0.3	-2	5.8	0	0.8	2.0	0	8
CCN1CCN(c2ccc(S(=O)(=O)N3CCCCC3)cc2NC(=O)/C=C/c2cc(OC)ccc2OC)CC1	4.2	10	-111	34	-1.3	?	11	47
Cc1ccc(NC(=O)Nc2c(Cl)cccc2Cl)cn1	-5.2	-10	.	-9	1.8	?	-4	8
CC(CCc1ccc(O)cc1)NCCc1ccc(O)c(O)c1 (stereo not given)	1.9	24	1.1	2	0.1	40*	.	5
CC(=O)c1ccc(-c2nnc(CCC(=O)N(C)Cc3cccc4cnccc34)o2)s1	2.1	-5	1.1	-17	?	3.4	-7	11
O=C(COc1ccccc1Br)N1CCN(C(=O)c2ccco2)CC1	3.7	0	1.7	9	-0.7	-3.5	0	-2
CCc1ccc(NC(=O)c2cc(C)nn2-c2ccccc2)cc1	-0.2	0	5.0	14	1.8	0.7	3	10
Cc1nnc(NC(=O)C2(c3ccccc3)CCOCC2)s1	-1.3	0	0.3	-3	-0.5	5.6	4	7
NC(=O)CSc1nnc(-c2cccc(S(=O)(=O)N3CCOCC3)c2)n1C1CCCCCC1	0.2	-10	2.5	-1	0.5	1.6	6	2
CCCOC(=O)Nc1cc(OC)c(Cl)cc1OC	-1.4	6	3.8	-8	2.4	-1.9	1	4
CCC/C(=N\NC(=O)C1CC1)c1ccc(Br)cc1	1.2	-10	.	-12	-0.2	1.6	-4	-5
CC/C(CC(=O)C(F)(F)F)=N\NC(=O)/C(C#N)=C/N(C)C	-2.2	-10	.	-15	0.0	-1.8	-5	-11
O=C1NC(=O)C2(CCCc3ccccc32)N1 (stereo not given)	-2.5	-4	7.2	-5	-0.5	-0.3	.	5
C/C(=N\NC(=O)c1nn(C)c(C)c1Br)c1cccc(NC(=O)c2ccc(F)cc2)c1	-0.1	6	.	-8	0.0	4.3	.	1
O=C(COC(=O)C1=COCCO1)Nc1ncc(C(F)(F)F)cc1Cl	1.3	-5	-0.2	7	1.2	-4.2	-9	-4
Cc1ccc(C2/C(=C(/O)c3ccc4c(c3)CC(C)O4)C(=O)C(=O)N2CCCn2ccnc2)cc1 (stereo not given)	4.1	.	6.7	-9	0.1	-0.9	-7	0
COc1cccc(N(C(=O)CNC(=O)c2ccco2)C(C(=O)NC2CCCC2)c2cccnc2)c1 (stereo not given)	-3.2	3	1.0	2	-0.1	2.7	-1	-7
CC(C)Cn1c(N)c(C(=O)COC(=O)c2c(F)cccc2F)c(=O)n(C)c1=O	-3.7	-22	0.0	11	-0.8	3.9	4	5
O=C(NCC1CC1)c1cc(-c2ccccc2)nn1CC1CC(c2cccc([N+](=O)[O-])c2)=NO1 (stereo not given)	-5.0	1	5.6	0	1.5	0.3	1	13
O=C(CCC(=O)N1CCOc2ccccc21)N1CCCCC1	-4.9	10	4.8	-12	0.8	3.1	1	-9
